# TRPV1 potentiator – enhances activation of the human vanilloid receptor TRPV1. potentiation, % at 8.33 µM. hit rate 0.02% among 320,000. AID 540277. TRPV1-expressing cells, Fluo-8 calcium influx, capsaicin EC20 potentiation; host cell line not named in the record; control for the full effect not named in the record; active means potentiation above 80%; inconclusive means 30% to 80%; inactive means below 30%; also: 0% is about no effect
#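 TRPV1-expressing cells were cultured overnight at 35.5C and loaded with Fluo-8 calcium dye for 40 to 90 min at room temperature. After a 10 s baseline, compound was added and calcium influx was read kinetically for 3 min (ex 480/em 520 nm).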
# Sfp inh – Sfp phosphopantetheinyl transferase inhibition; Biochemical Sfp PPTase activity, qHTS; Potency, µM, for the others: max response, negative = inhibition, most hits filed as inhibitors; hit rate 3.5% among 310,000; AID 1490; active = well fitted inhibition curve with a large enough effect; inconclusive = small, poorly fitted or top-dose-only effect, or another doubt; inactive = no such curve, though single readings can be large or run the other way;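 also: the enzyme is Sfp with the accession as filed and its product quenches rhodamine fluorescence; potency is read from the fitted curve at half-maximal effect; 0% = enzyme reaction without inhibitor and -100% = no enzyme wells; top concentration of the series not given in the record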
#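 Buffer: 50 mM Hepes-Na pH 7.6, 10 mM MgCl2, 0.01% Nonidet P-40, 0.01% BSA. Enzyme 15 nM, pre-exposed to compound 15 min; substrates then added and fluorescence change tracked over 30 min.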
# ClpP mod – qHTS Assay for Activators of ClpP | hit rate 1.9% among 340,000 | purified B. subtilis ClpP, FRET peptide cleavage, 20 min | AID 651965, 2013 | ATP-dependent Clp protease proteolytic subunit (Bacillus subtilis (strain 168)), P80244 | Potency, µM (highest dose often 57.5 µM), for the others: at the top dose activity change, negative = active; active = well fitted falling curve with a large enough effect; inconclusive = small, poorly fitted or top-dose-only effect; inactive = no such curve, though single readings can be large or run the other way; also: potency is read from the fitted curve at half-maximal effect; the source files actives as falling curves though it sought activators and does not explain the sign; nearly all actives have a fitted effect of over 65% in size; many hits overshoot -100%
# Target sequence (P80244 whole entry, looked up): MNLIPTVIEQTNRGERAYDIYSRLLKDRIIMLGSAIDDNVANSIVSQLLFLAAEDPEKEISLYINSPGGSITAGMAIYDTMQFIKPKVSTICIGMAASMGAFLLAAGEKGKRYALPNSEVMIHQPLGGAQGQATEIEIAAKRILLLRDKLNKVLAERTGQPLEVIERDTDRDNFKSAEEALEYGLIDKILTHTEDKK
#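 Purified B. subtilis ClpP, 10 microg/mL final in Tris/HCl pH8 with KCl, BSA, glycerol and Tween-20, cleaved an Abz/nitrotyrosine-quenched decapeptide. Fluorescence (ex 320, em 430) was read at 0 and 20 min at room temperature. Delta was normalized to 5.8 microM ADEP and DMSO/no-enzyme controls.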
# PINK1 modulator – PINK1 expression modulation; Potency, µM (doses to about 76.6 µM), for the others: at the highest dose activation (PINK1 increase), actives largely listed as activators; hit rate 0.2% among 410,000; PINK1 immunofluorescence, high-content cytometry, 24 h; active = well fitted activation curve with a large enough effect; inconclusive = small, poorly fitted or top-dose-only effect; inactive = flat fitted curve, though single readings scatter; cell line not stated here;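 also: potency is read from the fitted curve at half-maximal effect; % of control where 0% means no effect; nearly all actives have a fitted effect of over 65% in size; a mitochondrial uncoupler was the plate control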
#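 PINK1 protein, normally rapidly degraded, was detected by immunofluorescence after 24 hour compound treatment of a stable cell line. Titration data (5 concentrations) came from laser-scanning cytometry, with CCCP-treated wells as controls.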
# TRPML1 agonist – activates the human TRPML1 channel; Q9GZU1; TRPML1-expressing cells, Ca2+ dye fluorescence, FDSS; host cell line not named in the record; reference of the full effect not given here; activation, % (concentration not given with the values); hit rate 0.12% among 410,000; AID 624414; in the data active = activation above about 50%; inconclusive = about 30% to 50%; inactive = below about 30%; also: 0% is about no effect; the text of the record puts the active cut at 80%
# Target sequence (Q9GZU1 whole entry, looked up): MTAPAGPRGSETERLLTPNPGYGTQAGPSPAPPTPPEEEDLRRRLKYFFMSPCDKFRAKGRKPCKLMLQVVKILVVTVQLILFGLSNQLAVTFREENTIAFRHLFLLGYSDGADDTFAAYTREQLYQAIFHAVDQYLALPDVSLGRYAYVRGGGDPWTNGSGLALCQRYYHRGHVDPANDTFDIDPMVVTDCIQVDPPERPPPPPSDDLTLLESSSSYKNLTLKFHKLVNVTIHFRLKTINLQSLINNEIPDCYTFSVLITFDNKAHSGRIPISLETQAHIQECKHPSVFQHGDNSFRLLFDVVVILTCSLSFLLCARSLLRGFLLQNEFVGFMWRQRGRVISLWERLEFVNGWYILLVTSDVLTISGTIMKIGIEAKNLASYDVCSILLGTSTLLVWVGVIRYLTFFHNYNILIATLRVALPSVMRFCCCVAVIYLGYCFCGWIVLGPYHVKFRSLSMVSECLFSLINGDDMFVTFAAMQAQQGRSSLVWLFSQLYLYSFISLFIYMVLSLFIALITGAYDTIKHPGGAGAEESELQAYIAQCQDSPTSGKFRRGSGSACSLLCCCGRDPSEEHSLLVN
#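 Calcium fluorescence on an FDSS kinetic reader gave the read-out. Tet-induced TRPML1-DL cells were plated overnight, dye-loaded (Ca8 with quencher, 45-90 min, room temperature, dark), then read 110 s after compound addition, and again 110 s after 4uM final 54-4 (EC80).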
# TRPML1 blocker – blocks the human TRPML1 channel | Q9GZU1 | TRPML1-inducible cells, Ca2+ dye fluorescence, FDSS; active compounds read low; inhibition of EC80 agonist-evoked calcium signal | activity change, negative = inhibition, % (test concentration not listed) | hit rate 0.02% among 390,000 | AID 624415; in the data active means activity change below about -50%; inconclusive means about -30% to -50%; inactive means above about -30%;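 also: stimulus is agonist 54-4 at its EC80 concentration; % is scaled to controls: 0 for no effect and ±100 for the full control effect; compound concentration not given in the record; the text of the record puts the active cut at -80%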
#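 Calcium fluorescence in TRPML1-DL cells induced overnight with Tet: a 110 s read after compound pin addition, then a 110 s antagonist read after challenge with 54-4 at 4 uM final (EC80).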
# Menin MLL FP FL – inhibitors of human menin-MLL interaction, wild-type MLL peptide. Fluorescence polarization, fluorescein-MLL peptide displacement from menin. FP activity change, % at 61.4 µM. 290,000 tested, under 10 active. AID 1766; inconclusive = falling polarisation curve, or a change in total fluorescence; inactive = total fluorescence flat and polarisation flat or rising; no compound was filed as active; the % refers to the polarisation; negative = inhibition;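 also: % of control where 0% means no effect; inhibitors lower the polarisation; unlabelled MLL peptide was the positive control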
# * hit, by the source's call; ? = inconclusive; . = not tested or not shown; & = joins results of further samples; ! = repeats disagree; [ ] = another dose, or the depositor's remark.
SMILES,TRPV1 potentiator,Sfp inh,ClpP mod,PINK1 modulator,TRPML1 agonist,TRPML1 blocker,Menin MLL FP FL
O=[N+]([O-])/C=C/c1cc2ccccc2[nH]1,-4.5,-6.6%,2.1%,-0.9%,5.3,14.6,3.6
COc1ccc(/C=C/c2nc3ccccc3n2C)cc1,11.7,-14.2%,-2.5%,-1.0%,3.9,38.1,-3.9
CCOC(=O)N1CCc2c(sc3c2c(=O)n(Cc2ccccc2)c(=O)n3Cc2c(F)cccc2Cl)C1,.,.,1.3%,2.6%,-0.2,3.6,.
CCOC(=O)CC(NC(=O)c1cccs1)c1ccc(C)cc1 (configuration not stated),-7.5,7.5%,-0.5%,1.6%,-0.7,8.0,-0.2
O=C(Nc1nc2ccc(F)cc2s1)C1=NN(c2ccccc2)C(=O)CC1,-13.5,-1.0%,-0.4%,-0.1%,1.3,-3.1,1.6
COc1ccccc1NS(=O)(=O)c1cccc(C(=O)NNC(=O)c2ccc(Cl)nc2)c1,.,.,.,-1.7%,-0.4,-9.3,.
Cc1ccc2c(c1)C(c1ccccc1)N(C(=O)COc1ccc(Cl)cc1Cl)CC(=O)N2 (configuration not stated),.,.,-0.5%,-0.5%,-0.9,-9.8,.
O=C(Nc1ccc(N2CCCC2)cc1)c1cccc(-c2cc3ccccc3oc2=O)c1,6.1,15.8µM*,0.7%,-0.9%,-0.4,7.5,6.4
Cc1cc(NCCCn2ccnc2)n2nc(-c3ccc(Cl)cc3)cc2n1,4.3,-14.8%,?,21.3%,0.1,-9.1,11.3
COc1ccccc1NC(=S)N(CCCN(C)C)Cc1cc2cc3c(cc2[nH]c1=O)OCO3,-3.1,11.2%,.,-0.1%,-0.3,8.9,-4.8
Cc1nc([N+](=O)[O-])c(SCC(O)CCl)n1Cc1ccc(Cl)cc1 (configuration not stated),-12.8,22.6%,.,0.7%,-0.4,3.2,-0.1
Cc1cc(N)n(-c2ccc3ccccc3c2)n1,5.6,6.1%,-1.9%,8.8%[38.3 µM],0.6,29.0,2.6
Cc1cc2ccccn2c1C(C[N+](=O)[O-])c1ccc(N(C)C)cc1 (configuration not stated),0.4,-19.7%,.,1.3%,4.2,-18.0,21.0
CC(C(=O)Nc1ccccc1)N1CCN(C(=O)c2ccco2)CC1 (configuration not stated),14.7,.,0.9%,0.6%,0.0,6.9,.
COc1ccc(S(=O)(=O)N2CCCCC2)cc1NC(=O)CCNC(=O)c1ccccc1Cl,-1.7,.,-1.9%,4.0%,-0.9,2.7,.
Cc1sc2ncnc(N3CCC(C(=O)Nc4nnc(SCc5ccccc5F)s4)CC3)c2c1C,1.5,.,?,-0.7%,-0.1,-15.5,.
CC(=O)NC/C(C)=N\Nc1ccc([N+](=O)[O-])cc1,18.5,-23.9%,.,6.2%,2.8,0.9,?
O=C(COC(=O)c1ccccc1)Nc1cc(S(=O)(=O)N2CCCCCC2)ccc1Cl,7.1,.,-0.6%,5.0%,0.3,6.7,.
CCC(C(=O)NCCc1ccc(S(N)(=O)=O)cc1)c1ccccc1 (configuration not stated),.,.,.,-1.1%,0.3,3.0,.
COc1ccc(N2CCN(C(=O)Cc3ccc(OC)c(OC)c3)CC2)cc1,-14.5,7.2%,1.3%,1.6%,-1.2,-5.7,0.6
COc1ccc(S(=O)(=O)N2CCCCC2)cc1C(=O)Nc1cccc(C(F)(F)F)c1,.,.,-11.6%,?,1.3,67.6,.
O=C(Cc1coc(-c2ccc(F)cc2)n1)NC1CCCCC1,-11.1,8.0%,9.1%,0.8%,0.0,4.2,3.2
COc1cc(CNCCCN2CCOCC2)ccc1OCC(=O)NC(C)(C)C,-6.6,2.3%,-2.7%,1.1%,0.2,5.0,-4.4
CCCc1cc(=O)oc2c(C)c(O)c(CN3CCCCC3)cc12,-12.9,-5.8%,-8.5%,7.7%[38.3 µM],-0.5,6.5,2.8
CC(=O)Nc1ccc(S(=O)(=O)NCCS(=O)(=O)N2CCN(c3ccccc3)CC2)cc1,10.8,13.7%,-1.2%,-0.5%,0.0,-6.3,0.6
COc1cc(NC(=O)c2cc(-c3ccccc3)on2)cc(OC)c1OC,9.1,0.6%,1.0%,10.5%,0.4,19.8,5.7
CCCN(CCC)CC(O)CN(c1cc([N+](=O)[O-])ccc1OC)S(=O)(=O)c1ccccc1 (configuration not stated),8.4,8.5%,-3.0%,-1.4%,-0.1,7.3,-1.6
CCCN(CCC)S(=O)(=O)c1ccc(C(=O)Nc2c(C)n(C)n(-c3ccccc3)c2=O)cc1,10.1,15.7%,0.4%,-1.1%,-1.5,-4.4,0.8
CC(=O)NC1C(Oc2ccccc2C)OC(CO)C(O)C1O (configuration not stated),8.8,15.8%,-0.2%,-0.7%,0.5,-1.0,1.7
CC1CCc2c(sc3ncnc(SCC(=O)c4ccccc4)c23)C1 (configuration not stated),8.9,-1.3%,-16.0%,2.4%,-0.8,8.6,-1.6
CCN(CC)/[N+]([O-])=N/Oc1cc(O/[N+]([O-])=N/N2CCCC2CO)c([N+](=O)[O-])cc1[N+](=O)[O-] (configuration not stated),.,-6.7%,.,.,0.4,-6.0,-6.3
CC(Sc1n[nH]c(-c2ccccc2)n1)C(=O)c1c(N)n(C)c(=O)n(C)c1=O (configuration not stated),-3.7,.,-21.5%,-0.9%,-0.1,0.5,.
Nc1ccn([C@@H]2O[C@H](CNCc3cccc4c3sc3ccccc34)[C@@H](O)[C@H]2O)c(=O)n1,.,.,-3.1%,0.7%,0.3,-2.1,.
CC1(C)CCC[C@]2(C)[C@H]3Cc4cc(O)ccc4O[C@]3(C)CC[C@@H]12,.,.,1.6%,-1.5%,-1.1,1.0,.
C=CCNc1nc(-c2ccccc2)c(C(=O)OCC)cc1C#N,-13.0,7.8%,-15.0%,8.9%,1.2,4.0,1.2
Cc1nc2cc3c(cc2c(C)c1C(=O)OC(C)C)OCO3,-32.6,-14.2%,?,3.3%,1.8,1.2,1.7
Clc1ccc(-c2nc3cnccn3c2Nc2ccc3c(c2)OCO3)cc1,-7.4,-5.6%,-4.6%,0.3%,-0.2,-5.9,1.5
CCN1C(=O)CSC1=NC1C2CC3CC(C2)CC1C3 (configuration not stated),-10.0,-12.8%,0.7%,5.4%,1.5,15.3,0.6
Cc1nc2cc(NC(=O)C3(C)CCCN(C(C)C)C3)ccc2o1 (configuration not stated),.,.,0.0%,0.4%,0.1,.,.
O=C(NCCN1CCCCC1)Nc1cccc(C(F)(F)F)c1,0.1,4.2%,-0.1%,0.5%,0.0,9.7,-5.6
Fc1ccc(COc2ccc(Br)cc2CNCC2CCCO2)cc1 (configuration not stated),-4.0,-9.8%,-0.3%,17.3%,1.5,60.1,-2.6
O=C(NNC(=O)c1cc2ccccc2cc1O)NC1CCCCC1,-17.0,-0.1%,6.3%,3.8%,-0.4,16.8,-1.3
O=S1(=O)CC(NCc2ccccc2)C(Nc2ccccc2)C1 (configuration not stated),-1.3,-3.7%,-1.5%,0.6%[38.3 µM],0.0,3.0,-2.3
C[C@H](CO)N1C[C@H](C)[C@@H](CN(C)S(C)(=O)=O)Oc2ccc(NC(=O)C3CC3)cc2C1=O,.,.,0.8%,-1.0%,-0.4,-20.5,.
C=CCN1C(=O)/C(=C\C(C)=C\c2ccccc2)SC1=S,-0.3,11.5%,.,6.0%,0.1,6.6,1.9
COc1cc(NC(=O)COc2cccc(C)c2C)ccc1NC(=O)c1ccco1,-0.1,-11.0%,.,4.5%,0.0,-1.1,-10.3
CC(C)CCN1CCN(Cc2cccn2-c2ccccn2)CC1CCO (configuration not stated),3.3,13.7%,.,0.3%,-0.3,27.8,-6.8
CC(=O)Nc1ccc(N(C(=O)Cn2nnc3ccccc32)C(C(=O)NCc2ccccc2)c2ccc(C)cc2)cc1 (configuration not stated),.,.,2.1%,0.3%,1.2,-6.6,.
CN1C[C@@H]2[C@@H]3C(=O)N(C)C(=O)[C@@H]3[C@](Cc3ccccc3)(C1=O)N2C(=O)c1ccc(F)cc1,.,.,-3.4%,0.1%,-0.3,2.9,.
CN(C)c1cccc2c1c(NS(=O)(=O)c1cn(C)cn1)nn2C,-6.7,31.6µM*,?,0.1%,-0.3,-0.5,.
COc1ccc(-c2[nH]c(-c3cccc(OC)c3)nc2SCC(=O)NC2CCCC2)cc1,26.8,3.8%,25.1µM*!,4.1%&2.5%,0.2&0.0,-3.6&2.4,2.6
CN(C(=O)Cn1c(=O)oc2cc(S(=O)(=O)N3CCCC3)ccc21)C1CCCCC1,?,12.1%,-1.0%,-0.8%,-0.4,-12.6,-0.5
Cc1ccc(C(=O)Nc2cccc(-c3cn4ccccc4n3)c2)cc1,0.3,-3.6%,.,4.9%,1.1,10.1,-3.2
COC(=O)c1cc(NC(=O)C2COc3ccccc3O2)cc(C(=O)OC)c1 (configuration not stated),-10.6,8.1%,-13.6%,5.0%[38.3 µM],-0.5,29.7,1.1
COC(=O)c1cccc(Cn2c(Cl)c(/C=N/Nc3ccccc3C)sc2=O)c1,5.2,56.2µM*,-0.4%,?,-0.2,9.0,17.9
CCC(=O)Oc1ccc(C(CC)C(CC)c2ccc(OC(=O)CC)cc2)cc1 (configuration not stated),1.1,20.2%,0.9%,4.9%,-0.4,17.9,-0.5
Cc1ccc(SC[C@H](c2ccccc2)N2CCN(C)CCC2=O)cc1,29.1,-0.7%,-5.4%,-0.8%,-0.3,-17.4,-0.8
CCNC(=S)N(CCc1c(C)[nH]c2ccc(F)cc12)Cc1cccnc1,-0.8,-0.3%,-1.0%,1.0%,1.4,6.3,3.1
CCOC(=O)c1cccc(S(=O)(=O)N2CCCC2)c1,-3.3,18.6%,1.4%,2.1%,-0.4,-0.8,0.3
CO/N=C/C(=N\Nc1cc(OC)cc(OC)c1)C(=O)c1ccccc1,25.0,?,.,5.5%,2.2,55.4,0.3
COc1ccc(S(=O)(=O)NC2CC(C)(C)NC(C)(C)C2)c2ccccc12,-1.1,10.2%,-2.3%,0.4%,0.6,-3.0,-0.6

# Screening results (PubChem)
